NPYLR7 ag: agonists of mosquito NPYLR7 receptor, primary screen, cell-based, Aedes aegypti, calcium fluorescence, mosquito biting behavior | activation, % at 10 µM | Aedes aegypti neuropeptide Y-like receptor 7 (NPYLR7) | HEK293T NPYLR7/Galpha15, GCaMP6s calcium fluorescence | AID 1259423, 2018 | 270,000 tested, 0.15% active; in the data active means activation above about 40%;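 further: 0% = vehicle and 100% = reference agonist at the receptor; some compounds past the cut are filed as inactive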
NPYLR7 ag max-min: also measured in NPYLR7 ag; calls as there; activation, %; measured here: Max-Min RFU normalised activation; some inactives read as strong as hits;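 span of the calcium signal over five minutes; 0% = vehicle and 100% = native peptide agonist; compound fluorescence can raise it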
* marks the source's active call; other numbers are inactive results; & = joins results of further samples. An excerpt; the hit share may differ from the screen's.

A first look:
1	Cc1cc(C)n(CCNC(=O)c2ccc(OC3CCN(CCc4ccccc4)CC3)cc2)n1
2	O=C(CN1CCCC1)N1CCCC(Cn2cc(CO)nn2)C1 (configuration not stated)

Assay by compound	1	2
NPYLR7 ag	-4	2
NPYLR7 ag max-min	-4	-1

The whole of this part, from the start:
1	Cc1cc(C)n(CCNC(=O)c2ccc(OC3CCN(CCc4ccccc4)CC3)cc2)n1
2	O=C(CN1CCCC1)N1CCCC(Cn2cc(CO)nn2)C1 (configuration not stated)
3	CC(C)COC(=O)N1C[C@@H]2CN(C(=O)C3CC3)C[C@]2(C(=O)O)C1
4	O=C(c1ccc(F)cc1)N(Cc1nccn1Cc1ccc(Cl)cc1Cl)C1CCCCC1
5	COCCCN(Cc1c(C)nn(-c2cccc(F)c2)c1N1CCN(C)CC1)C(=O)C(C)Cl (configuration not stated)

Assay by compound	1	2	3	4	5
NPYLR7 ag	-4	2	13	20	15
NPYLR7 ag max-min	-4	-1	4	31	20

6	Cc1cnc(NC(=O)C2(C)CCCN2C(=O)C(C)C)s1 (configuration not stated)
7	Cc1cccc(-c2cccc(NC(=O)C3CCCN(C(=O)c4ncoc4C)C3)c2)c1 (configuration not stated)
8	Cn1c(SCC(=O)NCc2ccco2)nc2ccccc21
9	COc1ccc(C(C)N2C(=O)C(CCSC)NC2=S)cc1OC (configuration not stated)
10	COC(=O)c1sc(S(=O)(=O)N2CC(C)OC(C)C2)c(C(=O)OC)c1C (configuration not stated)

Assay by compound	6	7	8	9	10
NPYLR7 ag	4	3	-1	-6	-1
NPYLR7 ag max-min	1	3	5	-5	6

11	CC(C)NC(=O)C1CCC(Cn2c(=O)c3sccc3n(Cc3ccccc3F)c2=O)CC1 (configuration not stated)
12	Cc1ccc(NC(=O)C(c2ccccc2)N2CCNC(=O)C2)cc1 (configuration not stated)
13	Cc1ccccc1Cn1c(=O)c(C(=O)NCc2ccc3c(c2)OCO3)nn(-c2ccc(Cl)cc2)c1=O
14	CCOC(=NCCCOC)NC(=O)c1cccs1
15	NCCn1cc(C(=O)N2CCCC(CCc3ccc(F)cc3)C2)nn1 (configuration not stated)

Assay by compound	11	12	13	14	15
NPYLR7 ag	-6	5	-1	4	7
NPYLR7 ag max-min	-8	2	2	13	4

16	COCCCNC(=O)c1sc2nc3n(c(=O)c2c1C)CCC3
17	O=C(CNc1cc(F)cc(F)c1)N1CCN(C(=O)c2cccs2)CC1
18	NC(N)=NC(N)=NCc1ccncc1
19	CC(C)C(NC(=O)C1CCCCC1)C(=O)N1CCN(S(=O)(=O)c2ccccc2F)CC1 (configuration not stated)
20	COc1ccc(Cl)cc1C1=N/C(=C\c2ccccc2C(F)(F)F)C(=O)O1

Assay by compound	16	17	18	19	20
NPYLR7 ag	-1	5	1	7	-3
NPYLR7 ag max-min	5	4	15	6	-2

21	COc1ccc(OC)c(N2CCn3c2nc2c3c(=O)[nH]c(=O)n2C)c1
22	COc1cccc(CC2CN(Cc3noc(-c4ccco4)n3)CCO2)c1 (configuration not stated)
23	CC1CN(CCCCNC(=O)Nc2ccnn2C(C)C)CC(C)O1 (configuration not stated)
24	O=C(c1cc(CN2CCC(O)CC2)on1)N1CCCC1c1ccc(F)cc1 (configuration not stated)
25	Cn1ccc(C(=O)O)cc1=O

Assay by compound	21	22	23	24	25
NPYLR7 ag	13	3	3	11	0
NPYLR7 ag max-min	4	-1	1	8	-5

26	C=CCn1c(SCC(=O)NCC(C)(C)N2CCOCC2)nc2scc(-c3ccccc3)c2c1=O
27	O=C(NCc1ccc2c(c1)OCO2)c1cccnc1N1CCN(C(=O)NCc2ccccc2F)CC1
28	COc1ccc(CN2CCN(C(=O)c3ccc(=O)[nH]c3)CC2)cc1F
29	CC(C)(C)P(=Nc1ccc(Br)cc1)(N1CCOCC1)N1CCOCC1
30	CCOC(=O)CCC(=O)N1CCN(c2ncnc3c2nnn3CC)CC1

Assay by compound	26	27	28	29	30
NPYLR7 ag	1	17	10	3	0
NPYLR7 ag max-min	-7	16	5	3	5

31	COCCC(=O)NC1CCCN(CCc2ccccc2)C1 (configuration not stated)
32	COc1ccccc1-n1cc(C(=O)NCCc2n[nH]c3c2CCCC3)cn1
33	CC(C)c1ccc(-n2nc(C(=O)N3CCCC3)c(=O)n(Cc3ccccc3F)c2=O)cc1
34	N#Cc1ccc(CN(CCF)Cc2cccc(F)c2)cc1
35	COc1ccc(CCN(Cc2ccc(C)o2)C(=O)CN(CCN2CCCC2)C(=O)Nc2cccc(Cl)c2)cc1OC

Assay by compound	31	32	33	34	35
NPYLR7 ag	0	-1	0	1	-1
NPYLR7 ag max-min	-2	-4	8	1	8

36	COCCN1CCN(C(=O)c2cc(COc3ccc4c(c3)CCCC4)on2)CC1
37	CC1CN(C(=O)CCS(=O)(=O)c2ccc(Cl)cc2)CC(C)O1 (configuration not stated)
38	CCn1c(C(C)NC)nc2ccc(Cl)cc2c1=O (configuration not stated)
39	COc1ccc(-c2nc3ccc(Br)cc3c(C(=O)O)c2C)cc1
40	CN(Cc1ccccc1)C(=O)Nc1c[nH]c2ccccc12

Assay by compound	36	37	38	39	40
NPYLR7 ag	4	6	17	-4	1
NPYLR7 ag max-min	1	3	16	-4	-7

41	CNCC(=O)N(C)CCc1nc2ccc(OC)cc2[nH]1
42	Cc1ccccc1NC(=O)CC(=O)N(C)Cc1n[nH]c2c1CCCC2
43	O=C(NCc1ccncc1)C1COC2(CCN(C(=O)Cc3ccccc3)CC2)N1C(=O)c1ccc(F)cc1 (configuration not stated)
44	O=C1NC(C(=O)N2CCc3[nH]nc(-c4ccc(C(F)(F)F)cc4)c3C2)CO1 (configuration not stated)
45	O=[N+]([O-])c1ccc(Cl)c(S(=O)(=O)Nc2ccc3cn[nH]c3c2)c1

Assay by compound	41	42	43	44	45
NPYLR7 ag	23	2	-1	-2	0
NPYLR7 ag max-min	16	3	0	-2	7

46	Cc1[nH]c2ccccc2c1N=Nc1cccc2ccccc12
47	O=C(CC1COCCN1)N1CC=C(c2ccc(F)cc2)CC1 (configuration not stated)
48	Cc1occc1C(=O)Nc1ccc(C(=O)N(C)CCN2CCCCC2C)cc1 (configuration not stated)
49	CC(C)N(Cc1ccc(OS(=O)(=O)c2cccc(C(F)(F)F)c2)cc1)C(=O)c1ccc(Cl)cc1Cl
50	COc1ccccc1Oc1ncccc1CNc1ccnc2ccccc12

Assay by compound	46	47	48	49	50
NPYLR7 ag	-2	-4	5	11	3
NPYLR7 ag max-min	-5	-5	4	11	-15

51	CC1C(=O)N(c2ccccc2Cl)CCN1C(=O)c1cccc(F)c1 (configuration not stated)
52	O=C(Cc1ccc(-n2c(=O)[nH]c3ccsc3c2=O)cc1)N1CCC(N2CCCCC2)CC1
53	CCc1ocnc1C(=O)NCc1cccnc1N1CCN(C)CC1
54	COc1ccc(N2CCN(C(=O)C(C)n3cncn3)CC2)cc1 (configuration not stated)
55	CCc1ccc2sc3nc(=O)c(C#N)c(C)n3c2c1

Assay by compound	51	52	53	54	55
NPYLR7 ag	-10	1	4	-5	4
NPYLR7 ag max-min	-5	2	0	-6	2

56	COc1cccc(C2C(C(=O)c3cccs3)=C(O)C(=O)N2CCCn2ccnc2)c1OC (configuration not stated)
57	CC(=O)C(C)SCC(=O)NC1(C#N)CCCC1 (configuration not stated)
58	CCOc1cc(Nc2ccc(NC(=O)Nc3cccc(C(F)(F)F)c3)cc2)nc(C)n1
59	CCN(CC)CCCC(C)NC(=O)c1cc(-c2ccccc2F)nn1-c1cccc([N+](=O)[O-])c1 (configuration not stated)
60	O=C(c1ccc(-c2ccccc2)c(F)c1)C1CCCN(C(=O)/C=C/c2cccnc2)C1 (configuration not stated)

Assay by compound	56	57	58	59	60
NPYLR7 ag	-14	1	14	20	9
NPYLR7 ag max-min	-15	-2	6	25	4

61	Cc1nc(N2CCN(CC(=O)N3CCCCC3)CC2)c2c(-c3cccs3)csc2n1
62	COc1ccc(Br)c(C(=O)N2CCCC2C(=O)NC2CC2)c1 (configuration not stated)
63	O=c1c2cnc3nc(-c4ccncc4)nn3c2ccn1Nc1nc2ccccc2[nH]1
64	CCCCNc1nccnc1-c1ccc(OC(F)(F)F)cc1
65	Cc1cc(C(F)(F)F)nn1CC(=O)Nc1cc(C(F)(F)F)ccc1Cl

Assay by compound	61	62	63	64	65
NPYLR7 ag	1	6	-2	-4	5
NPYLR7 ag max-min	-2	2	11	-7	-8

66	O=C(NCc1cccnc1)c1coc(CN(Cc2ccoc2)Cc2cccc(C(F)(F)F)c2)n1
67	c1ccc(C(c2ccccc2)N2CCN(c3ncnc4c3cnn4-c3ccccc3)CC2)cc1
68	Cc1cc(C)cc(OCCSc2nc3ccccc3n2CC(=O)N2CCOCC2)c1
69	O=C(CN(C1CC1)S(=O)(=O)c1cc(Cl)ccc1Cl)N(CCc1c[nH]c2ccccc12)Cc1ccc(Cl)c(Cl)c1
70	CN(CC(=O)Nc1cc(F)cc(F)c1)c1nccnc1C#N

Assay by compound	66	67	68	69	70
NPYLR7 ag	15	-4	0	-10	9&6
NPYLR7 ag max-min	26	-7	6	-8	3&3

71	O=C(CSc1ccc2nnc(-c3cccs3)n2n1)N1CCOCC1
72	Cc1ccccc1Cn1c(=O)c2c(nc3n(CCOCCO)c(C)cn23)n(C)c1=O
73	Cc1cc(C)n(CCCN(C)Cc2c(C)nn(C)c2Cl)n1
74	COc1ccc(NC(=O)Cn2cccc(-c3nc(-c4ccc(C)cc4)no3)c2=O)c(OC)c1
75	CCCN(Cc1ccccc1)C(=O)Cc1ccccc1C

Assay by compound	71	72	73	74	75
NPYLR7 ag	-2	4	10	-3	8
NPYLR7 ag max-min	-3	4	11	-10	5

2 entries from above in another layout.
15) NCCn1cc(C(=O)N2CCCC(CCc3ccc(F)cc3)C2)nn1 (configuration not stated)
  NPYLR7 ag: 7	NPYLR7 ag max-min: 4
16) COCCCNC(=O)c1sc2nc3n(c(=O)c2c1C)CCC3
  NPYLR7 ag: -1	NPYLR7 ag max-min: 5

Continuation:
76	Cc1ccc(-n2c(=O)[nH]c3c(C(=O)Nc4ccc(C(C)C)cc4)cn(C)c3c2=O)cc1
77	Cc1cc(NC(=O)c2ccc(Cl)cc2[N+](=O)[O-])no1
78	CC1CN(Cc2ccccc2)CCCN1C(=O)/C=C/c1cccc(CO)c1 (configuration not stated)
79	COC(=O)c1ccccc1NC(=O)Nc1ccn(Cc2c(F)c(F)c(F)c(F)c2F)n1
80	Cn1nc(C(C)(C)C)cc1C(=O)N1CCN(C2c3ccccc3CCc3ccccc32)CC1

Assay by compound	76	77	78	79	80
NPYLR7 ag	18	-3	2	-2	19
NPYLR7 ag max-min	18	-3	-2	-3	0

81	COc1ccc(C(=O)N(Cc2nc3cc(Cl)ccc3o2)C2CC2)cc1F
82	CCC1(C)CC(=O)N(Cc2ccc(Cl)cc2)C(=O)C1
83	O=C(NCC1CCCN(Cc2nc3c(s2)CCCC3)C1)c1n[nH]c2ccccc12 (configuration not stated)
84	CCCN1C(=O)C(c2c(C(C)C)[nH]n(-c3ccc(F)cc3)c2=O)=C(N2CCOCC2)C1=O
85	O=C(NCc1cccc(O)c1)Nc1nc(-c2ccncc2)cs1

Assay by compound	81	82	83	84	85
NPYLR7 ag	-6	-4	5	-5	-9
NPYLR7 ag max-min	-15	-5	2	1	-13

86	CC1(C)C/C(=N/N)c2cc(=O)[nH]nc2C1
87	O=C(C1=NOC(c2ccccc2)C1)N1CCCC1c1ccc[nH]1 (configuration not stated)
88	CC(NC(=O)C1CCN(C(C)C)CC1)c1cnn(-c2ccccc2F)c1 (configuration not stated)
89	CC(C)CNC(=O)C(C1CCCC1)N1CCN(C(=O)c2cccc(C(F)(F)F)c2)CC1 (configuration not stated)
90	CCN1CCN(Cc2nc3c(c(=O)[nH]c(=O)n3C)n2CCCc2ccccc2)CC1
91	CCN(CCn1cccn1)C(=O)CCc1nnc(C2CCCCC2)o1
92	O=C(CCn1cccn1)NC1CCCN(CCc2ccccc2)C1 (configuration not stated)

Assay by compound	86	87	88	89	90	91	92
NPYLR7 ag	-4	-24	3	1	0	2	5
NPYLR7 ag max-min	-11	-22	7	24	22	0	-3

From no. 86 as far as 89, copied from above:
86	CC1(C)C/C(=N/N)c2cc(=O)[nH]nc2C1
87	O=C(C1=NOC(c2ccccc2)C1)N1CCCC1c1ccc[nH]1 (configuration not stated)
88	CC(NC(=O)C1CCN(C(C)C)CC1)c1cnn(-c2ccccc2F)c1 (configuration not stated)
89	CC(C)CNC(=O)C(C1CCCC1)N1CCN(C(=O)c2cccc(C(F)(F)F)c2)CC1 (configuration not stated)

Assay by compound	86	87	88	89
NPYLR7 ag	-4	-24	3	1
NPYLR7 ag max-min	-11	-22	7	24

Bioassay records (PubChem BioAssay)
